# Assay outcomes (PubChem)
# RecA intein inh – inhibitors of M. tuberculosis RecA intein splicing; P9WHJ3; cell-free RecA intein splicing, fluorescence; inhibition, %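 (about 9 µM by stock and volumes)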; actives 0.75% (n = 290,000); AID 2221; in the data active means inhibition above about 30%; inconclusive means no clear call, values can overlap the other calls;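 further: 0% = vehicle wells and 100% = reference inhibitor control wells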
# Target sequence (P9WHJ3 whole entry, looked up): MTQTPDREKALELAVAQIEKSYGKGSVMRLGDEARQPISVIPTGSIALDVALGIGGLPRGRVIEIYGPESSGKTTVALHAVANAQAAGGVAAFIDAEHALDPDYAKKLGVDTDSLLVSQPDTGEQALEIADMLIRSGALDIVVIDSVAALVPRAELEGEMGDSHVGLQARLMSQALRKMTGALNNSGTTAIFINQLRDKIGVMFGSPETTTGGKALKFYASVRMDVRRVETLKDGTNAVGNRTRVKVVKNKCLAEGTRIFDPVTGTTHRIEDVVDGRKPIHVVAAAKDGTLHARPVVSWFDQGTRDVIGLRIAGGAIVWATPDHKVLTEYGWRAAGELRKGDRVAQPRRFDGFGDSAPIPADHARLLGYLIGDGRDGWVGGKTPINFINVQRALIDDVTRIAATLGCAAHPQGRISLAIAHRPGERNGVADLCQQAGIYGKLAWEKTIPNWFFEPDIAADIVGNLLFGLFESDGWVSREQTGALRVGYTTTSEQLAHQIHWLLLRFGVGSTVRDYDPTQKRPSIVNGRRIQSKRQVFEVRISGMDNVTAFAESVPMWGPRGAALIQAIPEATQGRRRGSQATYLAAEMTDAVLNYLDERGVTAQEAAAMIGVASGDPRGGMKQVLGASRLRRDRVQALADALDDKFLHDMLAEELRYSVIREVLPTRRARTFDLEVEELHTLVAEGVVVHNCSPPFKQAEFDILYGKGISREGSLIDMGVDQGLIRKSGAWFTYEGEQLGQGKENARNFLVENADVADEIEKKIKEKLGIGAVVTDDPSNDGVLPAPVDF
# Arbovirus anti – arbovirus infection inhibition; inhibition, % at 10 µM; actives 0.37% (n = 200,000); arbovirus infection cell-based antiviral screen;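 active means inhibition from about 30%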;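 further: bluetongue infection of BSR cells; cell survival read as ATP light after 72 h; 0% = infected wells without compound and 100% = uninfected wells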
# YopH inh – inhibitors of Yersinia enterocolitica YopH tyrosine phosphatase. fluorescence Ex485/Em525. inhibition, %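 (about 10 µM by stock and volumes)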. actives 0.16% (n = 140,000). AID 898;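 active means inhibition of 50% or more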;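 further: controls were vehicle for no effect and minimum signal wells for full effect; inactives centre near -20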
# Mtb betalactam – beta-lactam sensitization of Mtb H37Rv; M. tuberculosis H37Rv growth with meropenem, percent inhibition; hits of this screen are not shown here; inhibition, % at 25 µM; AID 434955; actives 0.27% (n = 330,000);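 active means about 74% or more and at least 40 points above the plate without the antibiotic, then above 30% in a dose series; inconclusive means first-round hits that could not be retested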;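 further: growth measured after seven days incubation then overnight dye step; 0% = bacteria only wells and 100% = bacteria with antibiotic; twin plates without the antibiotic show which effects depend on it; some results filed as inactive read as strong as hits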
# Mtb H37Rv – M. tuberculosis H37Rv growth inhibitors, H37Rv strain (AID 1626); actives 0.95% (n = 220,000); M. tuberculosis H37Rv growth inhibition; higher % means a stronger effect; one-dose inhibition, % at 10 µM; IC50 in µM for titrated hits;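 active means confirmed in a dose series; inconclusive means inhibition above 80% but not taken into the dose series; inactive means below 80% or under 30% at every dose of the series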;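 further: bacteria incubated seven days before Alamar blue readout; 0% = bacteria only wells and 100% = bacteria with antibiotic wells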
# Arbovirus anti repeat – recorded beside Arbovirus anti, whose call it bears; inhibition, %; measured here: 10K subset replicate screen; many hits read low in the repeat;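 first of two repeat runs on a subset; 0% = infected and 100% = uninfected wells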
# * marks the source's active call; other numbers are inactive results; ? = inconclusive; . = not tested or not shown. A portion of the library, so the mix of outcomes need not match the whole.
SMILES,RecA intein inh,Arbovirus anti,YopH inh,Mtb betalactam,Mtb H37Rv,others
COCCN(CCOC)S(=O)(=O)c1ccc(C(=O)Nc2ccc([N+](=O)[O-])cc2OC)cc1,3.0,2,.,2,-8%,
C=CCc1ccc(OCC(O)COCC)c(OC)c1 (centres undefined),-2.5,2,-50,3,0%,
CCn1c(SCC(=O)N(C)C2CCS(=O)(=O)C2)nnc1-c1cccs1 (centres undefined),2.2,0,.,-4,1%,
O=C(CN(C(=O)CNC(=O)c1ccco1)c1ccc(Cl)c(Cl)c1)NC1CCCCC1,0.5,1,-17,0,-4%,
Cn1nccc1C(=O)NC(=S)Nc1sc2c(c1C#N)CCCCC2,.,-4,-27,3,-9%,
Cn1c(NCCCO)nc2c(c1=O)C1(CCCCC1)Cc1ccccc1-2,.,-45,-39,1,5%,
CCOC(=O)c1sc(NC(=O)c2ccccc2OCC)nc1C,22,2,.,4,4%,
C/[N+]([O-])=C\CC(=O)c1ccc(-c2ccccc2)cc1,17,16,.,-2,3%,
O=[N+]([O-])c1cccnc1N1CCOCC1,-1.3,2,5,-3,-3%,
CCN(CC)c1ccc(/C=C2\C(=O)NC(=O)N(Cc3ccco3)C2=O)cc1,-0.5,1,-2,4,-4%,
CCN1CCN(CC(=O)NC2CCCC2)C(=O)C1=O,0.0,5,.,-3,5%,Arbovirus anti repeat=0
CC1CC(=S)Nc2ccccc2N1C(=O)Nc1ccccc1 (centres undefined),0.2,4,-41,-11,5%,
Cc1cc(C)c2sc(N(CCN(C)C)C(=O)c3ccc4ccccc4c3)nc2c1,12,.,.,39,.,
CCSc1nnc([C@H](Cc2c[nH]c3ccccc23)NC(=O)OC(C)(C)C)o1,-0.2,5,-4,17,2%,
CCOc1ccc(NC(=O)Nc2ccc3nsnc3c2)cc1,2.2,-8,.,-3,4%,
Cc1cc(Cl)nc2c(C(C)C)cccc12,.,16,.,5,0%,
O=C(NCC1CCCO1)c1onc(CSc2ccc(F)cc2)c1C(=O)O (centres undefined),0.5,1,-135,1,-15%,
CCC(C)(C(=O)NC1CCCCC1)N(Cc1cccs1)C(=O)CC1NC(=O)NC1=O (centres undefined),-0.8,-4,-23,1,2%,
CCOC(=O)c1cccc(NC(=O)c2cc3sccc3n2C)c1,11,-2,-3,47,10%,
Cc1ccc(/C=N/NC(=O)CCn2nc(C)cc2C)c(C)c1,-2.5,-13,.,-12,-2%,
CCCCNC(=O)CCn1nc(-c2ccc(C)cc2)c2ccccc2c1=O,4.9,.,.,-7,.,
CCOC(=O)c1[nH]c2ccc(OC)cc2c1NC(=O)CCN1CCCC(C)C1 (centres undefined),-0.6,5,16,0,-9%,
Cc1cccc(C(=O)NCC(=O)NCCCSc2ccccc2)c1,3.6,.,.,-2,.,
Clc1ccc(C2=NNC(=NCC3CCCO3)SC2)cc1 (centres undefined),2.3,-3,-18,3,7%,
O=C(CSc1nc(-c2ccccc2Cl)ns1)c1ccc(Cl)cc1,1.9,5,-30,82,8.6µM*,
Cn1c(SCc2c(Cl)cccc2Cl)nc(C(F)(F)F)cc1=O,0.3,5,-36,2,3%,
CCOC(=O)N1CCN(C(=O)COC(=O)c2ccc(S(=O)(=O)N(CC)CC)cc2)CC1,-0.3,.,.,-7,.,
CCCCOC(=O)CCc1nc2ccccc2[nH]c1=O,1.6,3,-24,2,-3%,
CCOC(=O)CC(NC(=O)CCS(=O)(=O)c1ccc2c(c1)n(C)c(=O)c(=O)n2C)c1ccc(C)cc1 (centres undefined),4.1,.,.,1,.,
C[C@H](NC(=O)N1CCn2c1nc1ccccc12)C(=O)NC1CCCCC1,0.4,.,.,-2,.,
N=c1c2c(-c3ccccc3)c(-c3ccccc3)oc2ncn1Cc1ccco1,3.2,2,-28,66,-7%,
CCN(CC(=O)Nc1ccc2c(c1)OCCO2)C(=O)COc1cc(C)ccc1Cl,-2.8,.,.,-6,.,
Cc1ccccc1OCc1nnc(SCCN2CCCC2)n1-c1ccccc1,2.4,-33,.,4,4%,
N#Cc1c(N2CCN(C(=O)c3ccccc3)CC2)nc(-c2ccccc2)c2c1CCCC2,14,-18,-15,81,?,
CCOc1ccccc1OCCCC(=O)N1CCN(S(=O)(=O)c2cccc(F)c2)CC1,0.1,0,-18,3,1%,
Cc1cccc(C(=O)N/N=C2\CS(=O)(=O)N(C)c3ccsc32)c1,2.7,.,.,40,.,
COc1ccccc1C(=O)NCCSCc1ccccc1Cl,3.7,.,.,4,.,
CCN1CCN(CCCNC(=O)CS(=O)(=O)Cc2nc(-c3cccc(OC)c3)oc2C)CC1,0.6,.,.,-11,.,
O=C(c1ccc(CS(=O)c2cccc(Cl)c2)o1)N1CCN(C2CCCCC2)CC1 (centres undefined),0.0,.,.,6,.,
Cc1ccc(SCCNC(=O)/C=C/c2ccc([N+](=O)[O-])cc2)cc1,2.9,7,2,5,5%,
CC(C)Cc1cc(C(=O)Nc2ccc(F)cc2F)no1,0.0,2,3,97,?,Arbovirus anti repeat=0
O=C(CSc1nc(O)c(Cc2ccccc2)c(=O)[nH]1)c1ccccc1,0.9,.,.,5,-8%,
Cc1cc(C)cc(N2CN=C3SCC(=O)N3C2)c1,-3.0,6,-27,-3,4%,
c1ccc2c(c1)Oc1cccc3cccc-2c13,4.6,.,.,2,9%,
O=C1C2C3C=CC(CC3)C2C(=O)N1c1nccs1 (centres undefined),-1.4,2,-26,0,-3%,
C=CCSc1nc2ccccc2n1S(=O)(=O)c1ccc(C)cc1,.,0,31,-5,1%,
COC(=O)C(Cc1ccccc1)NC(=O)c1ccc(C)cc1 (centres undefined),-0.4,1,.,6,-1%,
CCOC(=O)CCc1c(C)c2ccc(OCc3cc([N+](=O)[O-])ccc3OC)cc2oc1=O,-4.9,-2,-30,-3,.,
O=C(CN1CCC2(CC1)OCCO2)c1ccc2cc[nH]c2c1,8.4,2,-19,-4,-7%,
Cc1sc2nc3n(c(=O)c2c1C)CCCCC3,.,-17,-7,-2,3%,
# (listing goes on)
SMILES,RecA intein inh,Arbovirus anti,YopH inh,Mtb betalactam,Mtb H37Rv,others
COc1cccc(NC(=O)C2c3cc(OC)c(OC)cc3C(=O)N(C)C2c2cccnc2)c1 (centres undefined),-2.8,4,-37,-6,-8%,
Cc1cc(C)nc(SCC(=O)c2ccc(Cl)cc2)n1,3.6,.,.,4,.,
O=C(O)/C=C/c1cccc(NC(=O)c2ccc(Cl)cc2)c1,3.2,-4,.,0,-10%,
CC(C)(C)NC(=O)c1nc2ccccc2s1,-0.1,0,-25,47,-3%,
O=C(Oc1ccc(F)cc1)c1cccnc1,-1.3,.,.,1,.,
CCOC(=O)c1ccccc1NC(=O)c1nc2nccc(C)n2n1,1.3,-3,-18,0,-6%,
COc1cc(C(=O)O/N=C(\N)Cc2ccc([N+](=O)[O-])cc2)cc(OC)c1OC,0.8,.,.,5,-6%,
CCCCCCNC(=O)CCCCCNS(=O)(=O)c1ccc(Br)cc1,.,3,.,7,1%,
O=C(Cn1ccc2ccccc2c1=O)NCC(=O)N1CCCCC1,0.9,.,.,-1,.,
Cc1nc(-c2ccc(Cl)cc2)sc1C(=O)O,0.2,2,.,-13,-13%,
CC(C)c1csc(CN2CCN(Cc3ccc(F)cc3)C(CCO)C2)n1 (centres undefined),2.3,0,.,2,-5%,
CN1CCC(NC(=O)NC2CCCCC2)CC1,-1.0,.,.,2,-16%,
NC(=O)/C(=C/c1ccco1)NC(=O)c1ccc(Br)o1,1.2,.,-24,-2,5%,
O=C(CCC(=O)N1CCOc2ccc(Cl)cc21)N1CCC2(CC1)OCCO2,-15,.,.,-2,.,
CCN(C(=O)CSc1nc2ccccc2n1CCc1ccccc1)C1CCS(=O)(=O)C1 (centres undefined),4.4,-2,-11,0,-9%,
COc1cccc(CN(C(=O)Cc2c[nH]c3ccccc23)C(C(=O)NC2CCCCC2)c2ccc(C)o2)c1 (centres undefined),11,-18,-23,6,7%,
Cc1nc(SCC(=O)N2c3ccccc3Sc3ccccc32)n[nH]1,1.8,2,15,5,1%,
Cc1ccc(C(=O)N(Cc2ccc3c(c2)OCO3)Cc2nc3ccccc3c(=O)[nH]2)cc1,-5.4,-11,-17,11,15%,
CSCC[C@H](NC(=O)c1ccc(Cl)c(S(=O)(=O)N2CCCC2)c1)c1nc2ccccc2[nH]1,4.4,-8,-21,11,3%,
O=C(Nc1cc(S(=O)(=O)N2CCOCC2)ccc1OCC(F)(F)F)C1=COCCO1,-3.9,.,.,-8,.,
CCC1CCc2c([nH]c3ccccc3c2=O)O1 (centres undefined),-5.1,-4,-15,-5,4%,
O=C(CSc1ncn[nH]1)Nc1c(Br)cc([N+](=O)[O-])cc1Br,2.8,8,-7,-1,-2%,
CC(=O)N1CCN(c2ccc(NC(=O)c3ccc([N+](=O)[O-])cc3)cc2)CC1,5.2,.,.,2,.,
COc1ccc(N(C)S(=O)(=O)c2cccc(C(=O)N(C)Cc3ccc(C)o3)c2)cc1,2.3,4,.,3,2%,
COc1ccc(-c2noc(C3CCCN(S(=O)(=O)c4ccc(C)c(Cl)c4)C3)n2)cc1OC (centres undefined),-1.7,3,-37,-7,7%,
Cc1occc1-c1nnc(SCC(=O)c2ccccc2)n1CC1CCCO1 (centres undefined),1.4,1,-33,-13,-6%,
O=C(CCCN1C(=O)/C(=C/c2ccccc2Cl)SC1=S)Nc1cccnc1,6.2,.,.,98,.,

# Molecules from the list above with a furan ring, fused or not (8):
SMILES,RecA intein inh,Arbovirus anti,YopH inh,Mtb betalactam,Mtb H37Rv,others
O=C(CN(C(=O)CNC(=O)c1ccco1)c1ccc(Cl)c(Cl)c1)NC1CCCCC1,0.5,1,-17,0,-4%,
CCN(CC)c1ccc(/C=C2\C(=O)NC(=O)N(Cc3ccco3)C2=O)cc1,-0.5,1,-2,4,-4%,
N=c1c2c(-c3ccccc3)c(-c3ccccc3)oc2ncn1Cc1ccco1,3.2,2,-28,66,-7%,
O=C(c1ccc(CS(=O)c2cccc(Cl)c2)o1)N1CCN(C2CCCCC2)CC1 (centres undefined),0.0,.,.,6,.,
NC(=O)/C(=C/c1ccco1)NC(=O)c1ccc(Br)o1,1.2,.,-24,-2,5%,
COc1cccc(CN(C(=O)Cc2c[nH]c3ccccc23)C(C(=O)NC2CCCCC2)c2ccc(C)o2)c1 (centres undefined),11,-18,-23,6,7%,
COc1ccc(N(C)S(=O)(=O)c2cccc(C(=O)N(C)Cc3ccc(C)o3)c2)cc1,2.3,4,.,3,2%,
Cc1occc1-c1nnc(SCC(=O)c2ccccc2)n1CC1CCCO1 (centres undefined),1.4,1,-33,-13,-6%,
